NPR1 antag – human Npr1 receptor antagonism; P16066; HEK293 hNpr1 GloSensor cGMP, ANP-stimulated luminescence; Potency, µM (top dose mostly 46.3 µM), for the others: at the highest dose activity change, negative = inhibition, hits mostly inhibitors; actives 1.6% (n = 76,000); AID 1347048; active = well fitted inhibition curve with a large enough effect; inconclusive = small, poorly fitted or top-dose-only effect; inactive = no such curve, though single readings can be large or run the other way;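 note: nearly all actives have a fitted effect of over 60% in size; nearly all hits also lower the signal before the agonist is added; a reference antagonist and vehicle were the controls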
Target sequence (P16066 whole entry, looked up): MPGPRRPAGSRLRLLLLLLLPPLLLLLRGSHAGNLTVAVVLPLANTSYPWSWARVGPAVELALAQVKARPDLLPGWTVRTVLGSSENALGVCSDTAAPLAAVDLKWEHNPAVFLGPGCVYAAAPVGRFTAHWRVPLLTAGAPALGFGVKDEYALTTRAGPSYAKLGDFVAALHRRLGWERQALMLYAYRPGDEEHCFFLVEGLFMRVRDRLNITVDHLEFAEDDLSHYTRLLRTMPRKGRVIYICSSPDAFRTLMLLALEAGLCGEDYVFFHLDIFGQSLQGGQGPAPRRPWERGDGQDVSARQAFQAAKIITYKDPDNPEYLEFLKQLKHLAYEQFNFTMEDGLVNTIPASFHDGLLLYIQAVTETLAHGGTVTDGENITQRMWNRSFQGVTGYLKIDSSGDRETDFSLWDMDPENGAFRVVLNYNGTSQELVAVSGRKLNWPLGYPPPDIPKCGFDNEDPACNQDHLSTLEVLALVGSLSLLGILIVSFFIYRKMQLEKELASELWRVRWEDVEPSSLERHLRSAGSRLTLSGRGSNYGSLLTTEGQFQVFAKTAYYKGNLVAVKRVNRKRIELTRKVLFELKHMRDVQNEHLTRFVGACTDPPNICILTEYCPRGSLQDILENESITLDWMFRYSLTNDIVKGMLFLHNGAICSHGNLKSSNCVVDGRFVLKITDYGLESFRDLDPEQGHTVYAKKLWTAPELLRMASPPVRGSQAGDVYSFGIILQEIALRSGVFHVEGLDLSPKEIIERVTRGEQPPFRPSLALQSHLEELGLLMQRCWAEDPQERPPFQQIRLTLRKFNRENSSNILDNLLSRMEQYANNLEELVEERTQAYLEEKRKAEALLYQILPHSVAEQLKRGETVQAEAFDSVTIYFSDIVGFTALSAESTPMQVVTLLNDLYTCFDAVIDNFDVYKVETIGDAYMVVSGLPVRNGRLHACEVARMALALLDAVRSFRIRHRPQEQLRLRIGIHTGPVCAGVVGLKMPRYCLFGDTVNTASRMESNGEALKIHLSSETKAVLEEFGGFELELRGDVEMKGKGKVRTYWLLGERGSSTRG
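Compound pre-incubated 30 min at room temperature on GloSensor-loaded HEK293 cells stably carrying hNpr1 and the pGS-40F cGMP biosensor. Stimulation uses hNppA at 0.1 nM final; luminescence is taken at baseline and 20 min post-agonist.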
Numbers without * were called inactive; [ ] = dose if it differs, or a comment. % is set by controls: 0 for no effect and ±100 for the full control effect; potency is the fitted concentration of half-maximal effect. Not all compounds are listed. The share of hits here may be higher or lower than overall.

SMILES	NPR1 antag
CCC(c1cccs1)N1C(=O)[C@H]2CN(S(=O)(=O)c3ccccc3)C[C@H]2C1=O (stereo partly specified)	2.8%
CN1Cc2nc(-c3cc(F)cc(F)c3)ccc2OCC1=O	-0.7%[70.6 µM]
COc1ccc(C(=O)N2CCC(Oc3ncccc3C(=O)N(C)C)C2)c(OC)c1 (stereo unspecified)	2.8%
O=C(CC1CCCC1)N1CCC(OC2CCN(Cc3ccccc3)CC2)CC1	4.6%
Cc1ccc(CNC(=O)CCC2CCCN(S(=O)(=O)c3ccc(F)cc3)C2)cc1 (stereo unspecified)	-0.8%
COc1ccc(CNC(=O)C[C@@H]2CCNC[C@@H]2Cc2cc(CSc3ccccc3)on2)cc1	-28.7%
CN1CCCN(C(=O)Cc2ccccc2F)c2ccccc21	1.5%
COC1CCOC2(CCN(C(=O)C3(c4ccccc4)CC3)CC2)C1 (stereo unspecified)	8.0%
O=C1CC2CCCC(C1)N2C(=O)c1ccc2ccccc2n1	-0.3%[70.6 µM]
Cc1ccc(-c2noc(-c3nc(C(C)C)no3)n2)cc1	-20.0%
Cn1nc2n(c1=O)CCC(NC(=O)c1c(F)cccc1Cl)CC2 (stereo unspecified)	9.5%
COc1ccc(-c2nc(C3CC(=O)N(c4ccc(C)cc4)C3)no2)c(OC)n1 (stereo unspecified)	-0.2%
Cc1ccccc1CNC[C@H]1O[C@H](Cc2cc(CN(C)Cc3ccccc3)on2)CC[C@@H]1O	-2.0%
CS(=O)(=O)N1CCC(Oc2ccc(C(=O)NCCc3ccccn3)cc2Cl)CC1	-13.4%
O=C1CCN(C(=O)[C@@H](Cc2ccccc2)NS(=O)(=O)c2cccs2)CCOCCN1	-1.0%
CCc1ccc(C(=O)NC2CCN(c3cnn(CCOC)c(=O)c3)CC2)cc1	-16.9%
O=C(NCc1ccccc1F)c1ccc2c(c1)CN(Cc1cccnc1)CCO2	-19.6%
Cn1c(CN2CCN(c3cnccn3)CC2)nnc1C1CC(N)C1 (stereo unspecified)	3.1%
COCCc1noc(Cc2c(C)nn(-c3ccccc3)c2C)n1	3.5%
CCOc1nccnc1NC1CCN(C(=O)C2CCCO2)CC1 (stereo unspecified)	-0.4%
COC[C@@H]1CN(S(C)(=O)=O)C[C@H]1C(=O)N(C)C	2.4%
CNC(=O)[C@@H](c1ccc(Cl)cc1)N1CCC[C@H]1C(=O)NCCN1CCCC1	2.4%
COCCNC(=O)C[C@@H]1C[C@H]2O[C@H](CNC(=O)Nc3cccnc3)[C@@H](O)[C@H]2O1	0.6%[70.6 µM]
Cc1noc2c(NCCN(C)C)cc(-c3ccccc3)nc12	0.1%[70.6 µM]
O=C(COc1ccc(Cl)cc1Cl)N1CCC(N2CCOC2=O)CC1	6.3%
O=S(=O)(c1ccccc1)N1CCC(Cc2nncn2-c2ccccc2)C1 (stereo unspecified)	-12.7%
CN(C)c1nc2c(c(=O)[nH]1)CCN(Cc1ccccc1)CC2	2.1%
CNc1nccc(N2CCC(CC(=O)NCc3ccccn3)CC2)n1	-0.1%
COc1ccc(NC(=O)c2cnc3c(c2)N(C(=O)Cc2cccc(C(F)(F)F)c2)CCC3)cn1	-21.7%
CC(C)NC(=O)N1CCCCCCNC(=O)[C@@H]2CCCC[C@@H]21	-2.5%
CC(=O)c1cccc(C(=O)N2CCC3(CC2)NC(=O)N(Cc2ccc(C)cc2)C3=O)c1	-2.2%
CC1CCN(C(=O)c2ccccc2OCC2CCCN(C3CCCC3)C2)CC1 (stereo unspecified)	-7.3%
COC(=O)c1ccc(NC(=O)c2c(OC)cc(=O)n3c2CCCC3)cc1	-11.5%
O=C(c1cccc(Cl)c1)N1CCN(c2cc(C(F)(F)F)ncn2)CC1	-0.1%
COc1cc(OC)c(OC)cc1CN1CCc2nc(N(C)C)[nH]c(=O)c2CC1	2.0%
COCc1nc(CCNC(=O)C(C)c2ccccc2)no1 (stereo unspecified)	4.8%

Taken from above.
In NPR1 antag, CNc1nccc(N2CCC(CC(=O)NCc3ccccn3)CC2)n1 has the entry -0.1%
In NPR1 antag, CC(=O)c1cccc(C(=O)N2CCC3(CC2)NC(=O)N(Cc2ccc(C)cc2)C3=O)c1 has the entry -2.2%

Remaining list, next part.
SMILES	NPR1 antag
Cc1cc(F)cc(CN2CCc3nc(C(=O)NCC4CC4)oc3CC2)c1	22.4µM*
COCC(=O)N[C@@H]1CN(Cc2ccc(C)cc2C)C[C@H]1CO	-1.6%
COc1cc(OC)c(OC)cc1CN1CCc2nc(N3CCN(C)CC3)[nH]c(=O)c2CC1	0.1%
COc1ccc(NC(=O)c2ccc3c(c2)NC(C)(CNc2ccccc2)CO3)cn1 (stereo unspecified)	35.5µM*
COCCCNC(=O)N1C[C@@H](Oc2ccccc2)C[C@H]1C(=O)N1CCOCC1	1.5%
CNC(=O)[C@@H]1C[C@@H](O)CN1C1CCN(C(=O)c2cccc(C)c2)CC1	-18.2%
CC(C)CN1CC2(CCN(C(=O)c3ccc(-n4cnnc4)cc3)CC2)CC1=O	6.8%
COc1ccc(CNC(=O)NC2CCc3n[nH]c(=O)n3CC2)cc1 (stereo unspecified)	-1.7%
O=C([C@@H]1C[C@H](Oc2cccnc2)CN1C(=O)C1CC=CC1)N1CCOCC1	6.4%
Cc1cccc(C(=O)N2CCCC(c3nnnn3C)C2)c1 (stereo unspecified)	6.9%
COc1ccc(CCc2nc3nccc(-c4ccccn4)n3n2)cc1OC	1.5%
COc1cc(OC)cc(-c2nc(-c3nnn4c3COC(c3ccc(C)cc3)C4)no2)c1 (stereo unspecified)	12.5%
O=C(c1ccccn1)N1CCC12Cc1ccccc1NC2=O (stereo unspecified)	0.0%[70.6 µM]
COc1ccccc1C(=O)NCCn1ccn2nc(-c3cc(C)ccc3C)cc2c1=O	-4.0%
COCC1CN(C2CCC2)CC12CCN(C(=O)c1ccccn1)CC2 (stereo unspecified)	4.4%
O=C(c1cc2ccccc2[nH]1)N1CC2CC(C1)[C@@H]1CCCC(=O)N1C2 (stereo partly specified)	-2.3%
O=C(NCc1ccco1)N1CC(c2noc(C3CCCN3CC3CC3)n2)C1 (stereo unspecified)	7.6%
COc1ccc(-c2ccc3c(c2)C(=O)N2CCN(C(=O)COCC(=O)O)C[C@@H]2C(=O)N3)c(OC)c1	-0.9%
CS(=O)(=O)N1CCC(C2CCN(Cc3ccc(C#N)cc3)C2)CC1 (stereo unspecified)	3.0%
Cn1ncnc1CCNC(=O)[C@H]1CCC[C@H](O)C1	1.4%
COc1ccc(CN2C(=O)N(c3cccc(C(F)(F)F)c3)C(=O)[C@@H]3[C@H]2CCN3C(=O)CCC(=O)O)cc1	3.8%
CC(C)n1c(CNC(=O)C[C@H]2NC(=O)c3ccccc3NC2=O)nc2ccccc21	5.2%
CCc1ccc(N2CC(c3noc(C4(c5ccccc5)CC4)n3)CC2=O)cc1 (stereo unspecified)	-15.1%
COC(=O)CNC(=O)N1CCC(N2CC3CC(C2)[C@H]2CCCC(=O)N2C3)CC1 (stereo partly specified)	6.5%

Two compounds drawn at random from those above:
SMILES	NPR1 antag
COc1ccc(-c2ccc3c(c2)C(=O)N2CCN(C(=O)COCC(=O)O)C[C@@H]2C(=O)N3)c(OC)c1	-0.9%
Cn1ncnc1CCNC(=O)[C@H]1CCC[C@H](O)C1	1.4%

Back to the main list, repeating the five entries before the break.
SMILES	NPR1 antag
Cn1ncnc1CCNC(=O)[C@H]1CCC[C@H](O)C1	1.4%
COc1ccc(CN2C(=O)N(c3cccc(C(F)(F)F)c3)C(=O)[C@@H]3[C@H]2CCN3C(=O)CCC(=O)O)cc1	3.8%
CC(C)n1c(CNC(=O)C[C@H]2NC(=O)c3ccccc3NC2=O)nc2ccccc21	5.2%
CCc1ccc(N2CC(c3noc(C4(c5ccccc5)CC4)n3)CC2=O)cc1 (stereo unspecified)	-15.1%
COC(=O)CNC(=O)N1CCC(N2CC3CC(C2)[C@H]2CCCC(=O)N2C3)CC1 (stereo partly specified)	6.5%
Cn1nc(C2CCN(C(=O)CC3CCCC3)CC2)c2c1CCOC2	-2.7%
C[C@H](N)C(=O)N1CCC(n2nccc2NC(=O)Nc2ccccc2Cl)CC1	0.6%
O=C([C@@H]1C[C@H](F)CN1C(=O)Cc1ccccc1F)N1CCCCC1	-0.3%
CN1C(=O)CO[C@H]2CN(C(=O)c3cnccn3)C[C@H]21	3.5%[70.6 µM]
CN(C)[C@@H]1CN(C(=O)c2cc(Cl)ccc2F)C[C@H]1CO	-0.8%
CC(C)(C)c1ccc(C(=O)N2CC[C@H]3NC(=O)N(Cc4ccccc4)C(=O)[C@H]32)cc1	-15.5%[70.6 µM]
Cc1nc2cccnc2n1CC1CCCN(S(=O)(=O)c2ccc(CC(C)C)cc2)C1 (stereo unspecified)	12.6µM*
O=C1NCCOCCCN(C(=O)NCc2ccccc2)[C@H]2CCC[C@@H]12	-3.3%
COC(=O)CCNC(=O)C1c2ccccc2C(=O)N(C2CCCC2)C12CCCCC2 (stereo unspecified)	-0.8%
Cc1ccn2c(C(=O)N3CCC4(CC3)Nc3ccccc3NC4=O)nnc2n1	1.4%
COc1ccc(-c2[nH]ncc2CNC(=O)C2CC3(CCNCC3)CN2)cc1 (stereo unspecified)	1.5%
N[C@@H](Cc1ccc(O)cc1)C(=O)N1CCc2c(nc(-c3cccnc3)[nH]c2=O)C1	4.0%
Cc1noc(C)c1[S+](=O)([O-])N1CCC2(COC(=O)N2Cc2ccccc2)C1 (stereo unspecified)	1.5%[70.6 µM]
CNC(=O)[C@@H]1C[C@H](Oc2cccnc2)CN1C(=O)CC1CCCCC1	2.2%
CC[C@H]1CN(S(=O)(=O)c2c(C)noc2C)CC[C@H]1CC(=O)O	4.5%[70.6 µM]
O=C1NCCCCCCN(S(=O)(=O)c2cccc(F)c2)[C@H]2CCCC[C@@H]12	-9.5%
C=CCNC(=O)C(NC(=O)c1ccccc1)C1CCN(C(=O)c2ccccc2C)CC1 (stereo unspecified)	-1.5%
O=C(O)c1ccnc(-c2ccnc(NCCCN3CCCC3=O)n2)c1	3.8%
O=C(NCC1Cn2cccc2C(=O)N1Cc1ccccc1)C1CCC1 (stereo unspecified)	-1.4%
COc1ccccc1C(=O)N1CCC(C(NC(=O)c2ccc(C)cc2)C(=O)N2CCCCC2)CC1 (stereo unspecified)	0.5%
COc1ccc(OC)c(NC(=O)Cn2c(-c3ccccc3)nc(C)c(CCO)c2=O)c1	-10.8%
COCCN1CCCC2(CCN(C(=O)COc3cccc(C)c3C)C2)C1=O (stereo unspecified)	0.0%
Cc1ccc(C(=O)N2CCCC2C(=O)Nc2cccc(-n3cccn3)c2)cn1 (stereo unspecified)	-19.3%
CC(=O)N[C@@H]1CN(Cc2cc(=O)n3[nH]cnc3n2)C[C@H]1c1ccc(C)o1	0.9%

Four of the entries above in order of the NPR1 antag value, lowest first.
SMILES	NPR1 antag
Cc1ccc(C(=O)N2CCCC2C(=O)Nc2cccc(-n3cccn3)c2)cn1 (stereo unspecified)	-19.3%
COc1ccccc1C(=O)N1CCC(C(NC(=O)c2ccc(C)cc2)C(=O)N2CCCCC2)CC1 (stereo unspecified)	0.5%
CC(=O)N[C@@H]1CN(Cc2cc(=O)n3[nH]cnc3n2)C[C@H]1c1ccc(C)o1	0.9%
O=C(O)c1ccnc(-c2ccnc(NCCCN3CCCC3=O)n2)c1	3.8%

Remaining list, next part
SMILES	NPR1 antag
Cc1noc(C)c1S(=O)(=O)N(C)Cc1cccc(C(F)(F)F)c1	0.0%
N#Cc1ccc(C(=O)N2C[C@@H]3C[C@H](C2)c2c(-c4ccc5ccccc5c4)ccc(=O)n2C3)cc1	0.3%
O=C(NCc1cccnc1)[C@@H]1C[C@@H](O)CN1C1CCN(C(=O)C2CCCC2)CC1	3.1%
O=C(CC1CCCN(c2cnn(CC3CC3)c(=O)c2)C1)N1CCCC1 (stereo unspecified)	-0.4%
COc1ccc(-c2[nH]ncc2CN2CCc3nc(N4CCN(C)CC4)[nH]c(=O)c3CC2)cc1	2.0%
CCN1CC2(CCN(C(=O)CCc3n[nH]c4c3CCCC4)CC2)OC1=O	1.9%
CCO[C@H]1CN(C2CCN(CCc3ccccc3)CC2)C[C@@H]1O	-3.6%
O=C(Nc1ccsc1)N[C@H]1C[C@H]2C(=O)NC[C@@H](CCC(=O)N3CCCC3)N2C1	7.0%[70.6 µM]
COC(=O)NCC(=O)N1CC[C@@H]2[C@@H](CCC(=O)N2CCc2ccccc2)C1	4.6%
COCc1cc(=O)n(CC(=O)Nc2cc(OC)cc(OC)c2)c(N2CCOCC2)n1	-4.9%
CCCN1C(=O)Cc2ccccc2C1C(=O)NCc1cccc(F)c1 (stereo unspecified)	-3.1%
Cn1ccnc1CN1C[C@@H](F)[C@@H](OCc2nc3ccc(F)cc3[nH]2)C1	-1.8%[70.6 µM]
O=C1N[C@H](CCC(=O)N2CCC(c3nc4ccccc4[nH]3)CC2)C(=O)Nc2ccccc21	-1.0%
CC(C)c1noc([C@@H]2C[C@@H](O)CN2Cc2ccc(S(C)(=O)=O)cc2)n1	0.8%[70.6 µM]
O=C([C@@H]1C[C@H](Oc2cccnc2)CN1S(=O)(=O)c1cccnc1)N1CCCC1	-15.4%
CC(C)C[C@@H]1N[C@H](C(=O)NCC2CC2)Cc2cn(Cc3ccncc3)c3cccc1c23	-15.6%[70.6 µM]
CCNC(=O)[C@@H]1CCCN1C(C)(C)C(=O)NC	0.5%[70.6 µM]
COc1ccc(-c2ccc3nc(-c4ccccc4)oc3c2)c(OC)c1OC	2.7%
Cc1c(CN2CCCC(COc3ccccc3C(=O)N3CCCCC3)C2)cnn1C (stereo unspecified)	0.6%
Cc1cc(=O)[nH]c(NCCNC(=O)C2CCC(=O)N(C3CCCCCC3)C2)n1 (stereo unspecified)	3.2%
NCCCN1C(=O)CC[C@H]2CN(C(=O)CN3CCNC(=O)C3)CC[C@H]21	13.7%
O=C(Nc1ccc(F)cc1F)N1CCC(Oc2ncccc2C(=O)N2CCCCC2)C1 (stereo unspecified)	3.8%

Compound activity as filed in PubChem BioAssay.
